# Source: PubChem BioAssay (National Center for Advancing Translational Sciences (NCATS))
# PINK1 expr mod – modulators of PINK1 expression. Potency, µM (doses to about 76.6 µM), for inactives: at the highest dose activation (PINK1 increase), most hits filed as activators. 410,000 tested, 0.2% active. PINK1 immunofluorescence, high-content cytometry, 24 h; active = well fitted activation curve with a large enough effect; inconclusive = small, poorly fitted or top-dose-only effect; inactive = flat fitted curve, though single readings scatter; cell line not stated here;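 note: % of control where 0% means no effect; nearly all actives have a fitted effect of over 65% in size; a mitochondrial uncoupler was the plate control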
#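 Readout is PINK1 immunofluorescence, quantified alongside mitochondrial, cell and nuclear markers by laser-scanning microplate cytometry. Cells from a stable line were exposed to compound titrations (5 concentrations) for 24 hours, with CCCP controls.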
# * hit, by the source's call. Potency is the fitted concentration of half-maximal effect. The list is partial, so the mix of outcomes need not match the whole.
molecule | PINK1 expr mod
COc1ccc(NC(=O)c2cc(S(=O)(=O)N3CCCCC3)cn2C)cc1Cl | 9.8%
COc1ccc(CCN2C(=O)c3[nH]nc(-c4ccccc4O)c3C2c2ccc(OC)c(OC)c2)cc1 (stereo unspecified) | 3.3%
COCCNC(=O)Cn1nc(C)c2c(C)n(-c3ccc(C)cc3)nc2c1=O | 0.7%
O=C(Nc1ccc2oc(-c3cccnc3)nc2c1)c1ccccc1F | 11%
CC(C)NC(=O)c1ccc(NC(=O)N2CCCCc3ccccc32)cc1 | 1.3%
O=C(OCc1ccco1)c1ccc2c(c1)N(Cc1ccc([N+](=O)[O-])cc1)C(=O)c1ccccc1S2 | 2.2%
CCCc1nn2c(=O)cc(COC(=O)c3ccccc3NC(=O)COc3ccccc3)nc2s1 | 3.7%
COc1ccc(N2CCN(S(=O)(=O)c3ccc4oc(=O)c5ncn(C)c5c4c3)CC2)cc1 | 1.6%
CC(C)(C)CC(=O)NCC(c1ccc2c(c1)OCO2)N1CCN(c2ccccc2)CC1 (stereo unspecified) | -0.2%
CCOc1ccc(NC(=O)c2cnn(-c3ccc(C)c(C)c3)c2C2CCN(C(=O)OC(C)(C)C)CC2)cc1 | 0.3%
COC(=O)c1c(NC(=O)c2cc3nc(-c4ccc(Br)cc4)cc(C(F)(F)F)n3n2)sc2c1CCCC2 | 1.3%
Cc1cccc(Cn2c(=O)n(Cc3ccc(C(=O)NC4CCN(Cc5ccccc5)CC4)cc3)c(=O)c3ccccc32)c1 | 1.5%

# 6 of the entries above in order of the PINK1 expr mod value, low to high:
Molecule | PINK1 expr mod
CC(C)(C)CC(=O)NCC(c1ccc2c(c1)OCO2)N1CCN(c2ccccc2)CC1 (stereo unspecified) | -0.2%
CCOc1ccc(NC(=O)c2cnn(-c3ccc(C)c(C)c3)c2C2CCN(C(=O)OC(C)(C)C)CC2)cc1 | 0.3%
CC(C)NC(=O)c1ccc(NC(=O)N2CCCCc3ccccc32)cc1 | 1.3%
O=C(OCc1ccco1)c1ccc2c(c1)N(Cc1ccc([N+](=O)[O-])cc1)C(=O)c1ccccc1S2 | 2.2%
COc1ccc(CCN2C(=O)c3[nH]nc(-c4ccccc4O)c3C2c2ccc(OC)c(OC)c2)cc1 (stereo unspecified) | 3.3%
COc1ccc(NC(=O)c2cc(S(=O)(=O)N3CCCCC3)cn2C)cc1Cl | 9.8%

# The results go on.
molecule | PINK1 expr mod
CN(C)c1ccc(/C=C/c2ccnc3ccccc23)c(N)c1 | 4.4%
Cc1cc(C)n2nc(CNC(=O)c3cccc(N(C)C)c3)nc2n1 | 2.9%
COC(=O)[C@@H]1CCCN1C(=O)c1c(OC)cc(=O)n2c1CCN(Cc1ccc3nsnc3c1)CC2 | 0.1%
CCOc1ccc(NC(=O)c2c(NCc3cccnc3)sc3c2CCCC3)cc1 | 0.6%
COc1cccc(NC(=O)CN2C(=O)c3ccccc3Sc3ncccc32)c1 | 0.0%
CCn1c2ccccc2c2nnc(N3CCN(c4cc(C)ccc4C)CC3)nc21 | 1.1%
Cc1ccc2nc(N3CCCCCC3)c(CN(CC3CCCO3)C(=O)c3cncs3)cc2c1 (stereo unspecified) | -0.5%
Cc1ccc(CN2CCCn3nc(C(=O)NCc4cc(C)ccc4C)cc3C2=O)cc1 | 0.1%
Cc1ccc(CCNc2ncnc3onc(-c4ccc(Cl)cc4)c23)cc1 | -0.4%
CCOC(=O)c1c(C)[nH]c(CCC(=O)NCc2ccc(OC)cc2OC)c1C | 1.4%
CCOC(=O)C1=C(C)NC(=O)NC1c1cn(-c2ccccc2)nc1-c1ccc(OCC)cc1 (stereo unspecified) | 2.1%
CCn1cc(C(=O)N2CCN(c3cc(C)ccc3C)CC2)c(=O)c2cc(S(=O)(=O)N3CCOCC3)ccc21 | 1.6%

# The closing 2 records of the part before are carried over, then new ones follow:
molecule | PINK1 expr mod
CCOC(=O)C1=C(C)NC(=O)NC1c1cn(-c2ccccc2)nc1-c1ccc(OCC)cc1 (stereo unspecified) | 2.1%
CCn1cc(C(=O)N2CCN(c3cc(C)ccc3C)CC2)c(=O)c2cc(S(=O)(=O)N3CCOCC3)ccc21 | 1.6%
COc1ccc(Nc2c(-c3ccsc3)nc3nc(C)cc(C)n23)cc1 | 2.6%
Cc1cccc(NC(=O)Cn2cc(S(=O)(=O)c3ccc(F)cc3)c(=O)c3cc4c(cc32)OCO4)c1 | 2.9%
CCN(CC)S(=O)(=O)c1ccc2c(c1)N(CC(=O)NCC(C)c1ccccc1)C(=O)CO2 (stereo unspecified) | -0.4%
COc1ccc(CNC(=O)C(C(C)C)N2Cc3ccccc3C2=O)cc1 (stereo unspecified) | 17%
CCCCOc1ccc(C2c3c(oc4ccc(C)cc4c3=O)C(=O)N2CCCN(C)C)cc1OCC (stereo unspecified) | 0.3%
COc1nc(Oc2ccc(=O)n(-c3ccccc3)n2)nc(N(C)C)n1 | 0.2%
CCOC(=O)c1c(NC(=O)CS(=O)(=O)c2ccc(C)cc2)sc2c1CCCCC2 | -0.8%
COC(=O)c1ccccc1NC(=O)N1CCC(N2CCN(Cc3ccc(F)cc3)C(=O)C2=O)CC1 | -0.4%
Cc1cc2c(s1)c1cnn(CC(=O)N3CCOCC3)c(=O)c1n2C | 0.0%
CCOC(=O)c1c(C)[nH]c(C)c1S(=O)(=O)N1CCC(C(=O)N2CCN(c3cccc(C)c3)C(C)C2)CC1 (stereo unspecified) | 3.5%
O=C(CSc1c2c(nc3cc(Cl)ccc13)CCCC2)N1CCN(c2ccccc2F)CC1 | 2.3%
COc1ccc(Cl)cc1NC(=O)C1CCN(S(=O)(=O)c2ccc3c(c2)CC(C)N3C(C)=O)CC1 (stereo unspecified) | 1.5%
Cc1ccc(N2CCN(C(=O)c3c(C)oc4ncn(CC(C)C)c(=O)c34)CC2)c(C)c1 | -0.2%
CCCCOc1ccc(Cl)cc1Nc1nc(NCCO)nc(N2CCCC2)n1 | -0.6%
CCc1c(C)nc2nncn2c1Nc1ccc(Cl)cc1 | 1.8%
CCOc1cc2c(cc1OCC)C(CC(=O)OC)N(C(=O)Nc1cc(C)cc(C)c1)CC2 (stereo unspecified) | 3.5%
C=CCNc1oc(-c2cccc(Cl)c2)nc1C#N | 0.9%
COc1ccc(C(=O)Nc2nnc(S(=O)(=O)N3CCN(c4ccc(C)cc4)CC3)s2)cc1 | -1.1%
Cc1noc(-c2ccc(N3CCCCC3)c([N+](=O)[O-])c2)n1 | -1.4%
COc1ccc(CC(=O)Nc2nc3c(s2)CC(C(C)(C)C)CC3)cc1 (stereo unspecified) | 1.7%
Cn1c(=O)c2sccc2n2c(CCC(=O)NCc3ccc(F)cc3)nnc12 | 0.5%
COc1ccc2cc(CNc3ccccc3)c(=O)n(CC(=O)Nc3ccc(C(C)=O)cc3)c2c1 | 4.8%
CCc1cccc(-n2nnc(-c3nsc(NC(=O)c4cccc(OC)c4)n3)c2C)c1 | 9.3%
COc1ccc(S(=O)(=O)NCCc2csc3nc(-c4ccc(OC)c(OC)c4)nn23)cc1C | 1.7%
CCC1CCCCN1C(=O)CSc1nc(-c2ccc(OC)c(OC)c2)cc(C(F)(F)F)n1 (stereo unspecified) | 1.7%
CCOc1ccc(C2c3c(-c4ccccc4O)n[nH]c3C(=O)N2Cc2cccnc2)cc1OC (stereo unspecified) | -1.0%
CNc1c(NC(=O)c2ccc(OC)c(OC)c2)c(=O)oc2ccccc12 | -1.6%
CC(=O)c1ccc(NC(=O)c2ccc3c(c2)nnn3C2CCCC2)cc1 | 4.0%
CCCN(C(=O)Cn1nc(Cc2cccnc2)c2ccccc2c1=O)c1ccc(C(C)C)cc1 | 4.0%
COc1ccc(OC)c(-c2nnc3n(CCc4ccccc4)c(=O)c4ccccc4n23)c1 | -0.2%
Cc1cc2nc(-c3cccc(NC(=O)C(C)C)c3C)oc2cc1C | 1.2%
CCC1C(=O)NCCN1Cc1ccc2c(c1)CN(Cc1ccc3c(c1)OCCO3)CCO2 (stereo unspecified) | -0.8%
Cc1ccc(S(=O)(=O)N2CCN(c3nc(-c4ncccn4)nc4ccccc34)CC2)cc1 | 1.7%
O=[N+]([O-])c1cccc(S(=O)(=O)N2CCN(c3nc(-c4ccccc4)nc4ccccc34)CC2)c1 | 0.1%
Cn1nccc1C(=O)NCC1CCC2(CCN(Cc3c(O)ccc4ccccc34)CC2)O1 (stereo unspecified) | -0.1%
O=C(Nc1sc2c(c1C(=O)NCc1ccccc1)CCCC2)c1cc(=O)c2cc(Cl)ccc2o1 | 2.4%
CCc1ccccc1Nc1cc(C(=O)NCCc2ccccc2)c2ccccc2n1 | -0.1%
COc1ccc(CN(Cc2ccco2)C(=O)COc2ccccc2Cl)cc1 | -0.9%
COC(=O)c1scc(-c2ccccc2)c1S(=O)(=O)Nc1cccc(C)c1C | 2.5%
CCOc1cccc(C(=O)Nc2ccc3oc(-c4ccc(C(C)(C)C)cc4)nc3c2)c1 | -1.2%
O=S(=O)(c1ccccc1)c1nnn2c1nc(NCc1ccccc1)c1cc(Cl)ccc12 | -2.3%
CCC(C)NC(=O)Cn1c(=O)n(-c2ccc(C)c(C)c2)c(=O)c2c3c(sc21)CCCCC3 (stereo unspecified) | 2.3%
COc1ccc(-n2nc(C(=O)Nc3cccc(Cl)c3)c3c4ccccc4n(C)c3c2=O)cc1Cl | 0.5%
Cc1cccc(OCC(=O)Nc2ccc(S(=O)(=O)N(Cc3ccccc3)c3ccccc3)cc2)c1 | 2.8%
Cc1ccc(NC(=O)c2c(NC(=O)c3ccccc3)sc3c2CCC3)cc1 | 3.3%
CCc1ccc(OCCn2c(CCNC(=O)C3CCCCC3)nc3ccccc32)cc1 | 1.0%
CCN1CCOC(=O)C1CC(=O)Nc1ccc(Br)cc1 (stereo unspecified) | 1.2%
CC1CCN(S(=O)(=O)c2ccc3c(c2)N(CC(=O)NCc2ccccc2)C(=O)CO3)CC1 | 1.6%
CCc1nc2ccc(C(=O)NCCc3ccc(OC)cc3OC)cc2nc1CC | 0.1%
COc1ccccc1C1NC(c2ccc3c(c2)OCO3)=CC(c2cc(Br)ccc2O)N1 (stereo unspecified) | 3.9%
COc1ccccc1CNC(=O)CN1C(=O)COc2ccc(S(=O)(=O)N3CCC(C)CC3)cc21 | -0.4%
COc1ccccc1CCNC(=O)Cc1c(C)c2cc(Cl)c(O)cc2oc1=O | 0.2%
Cc1ccc2c(c1)C(=O)OC(C(=O)Nc1ncc(Cc3ccc(C(C)C)cc3)s1)C2 (stereo unspecified) | -0.6%
CCC(=O)C1=C(c2ccc(F)cc2)N(C(=O)CC)n2cnnc2S1 | 0.6%
COc1ccc2c(CNCc3ccco3)c(C(=O)O)n(Cc3cccc(F)c3)c2c1 | -0.3%
CC(C)CCNC(=O)c1c[nH]c2ccc(S(=O)(=O)Nc3cccc(C(F)(F)F)c3)cc2c1=O | 0.5%
Cc1cc(C)c(S(=O)(=O)N2CCC(N3CCN(Cc4ccccc4)C(=O)C3=O)CC2)c(C)c1 | 1.0%
Cc1c(C(=O)N(C)C)sc2c1c(=O)n(-c1ccccc1C(F)(F)F)c(=O)n2Cc1cccc(F)c1 | 2.1%
c1csc(CNc2nc(CN3CCCC(c4nc5ccccc5o4)C3)nc3ccccc23)c1 (stereo unspecified) | -0.9%
O=C(c1cccc(F)c1F)N1CCOc2ccc(CN3CCN(Cc4ccccn4)CC3)cc2C1 | -0.5%

# Going on with the list.
molecule | PINK1 expr mod
Cc1ccc(S(=O)(=O)c2nc(-c3ccco3)oc2SCc2ccccc2Cl)cc1 | -0.3%
Cc1ccc(S(=O)(=O)N2CCC(n3c(C)nc4cccnc43)CC2)c(C)c1 | -0.2%
O=C(CN1C(=O)COc2ccc(S(=O)(=O)N3CCCCCC3)cc21)N1CCN(c2cccc(C(F)(F)F)c2)CC1 | -0.9%
Cc1sc2ccccc2[n+]1CCCC[n+]1c(C)sc2ccccc21 | 0.6%
COc1ccc(CNC(=O)Cc2c(C)c3c(cc(C)c4c(C)coc43)oc2=O)cc1OC | 0.4%
CC(=O)c1ccc(NC(=O)C2CCN(S(=O)(=O)c3ccc4c(c3)CCCN4C(=O)C3CCC3)CC2)cc1 | -1.0%
Cc1ccc(NC(=O)c2nc(S(C)(=O)=O)ncc2N(Cc2ccccc2)Cc2ccco2)c(C)c1 | 2.3%
Cc1ccc2nc(-c3ccccn3)c(Nc3ccc(F)cc3)n2c1 | 3.8%
CCN1C(=O)CC(CC(=O)N2CCC(c3nc4ccc(F)cc4[nH]3)CC2)(c2ccccc2C)C1=O (stereo unspecified) | 1.3%
CCCN(C(=O)c1cc2c(Cl)nc3ccccc3c2s1)c1cccc(C)c1 | 2.3%
Cc1ccc(-c2nnc(Nc3ccccc3O)c3ccccc23)cc1 | 4.2%
O=C(OCc1cc(=O)n2nc(C3CCCCC3)sc2n1)c1ccccc1Cl | -0.9%
Cc1ccc(OCC(=O)OCc2cc(=O)n3nc(C4CCCCC4)sc3n2)cc1C | 0.0%
CC1CCN(CCCNC(=O)c2cn(C)c3ccc(S(=O)(=O)N(C)C4CCCCC4)cc3c2=O)CC1 | 1.0%
Cc1cccc(NC(=O)C2CCCN2S(=O)(=O)c2cccc3nsnc23)c1C (stereo unspecified) | 1.0%
C=Cc1ccc(CN2C(=O)N(c3cccc(Cl)c3)S(=O)(=O)c3ccccc32)cc1 | 1.0%
Cc1ccc(C)c(N2CCN(Cc3csc(C)c3C)CC2)c1 | 3.4%
O=c1c2ccccc2n(Cc2ccccc2F)c(=O)n1-c1cccc(F)c1 | 4.6%
COc1ccc(C2=NC(c3ccncc3)=Nc3ccc(OC)cc3N2)cc1 | 1.7%
CC(C)c1ccc2c(c1)-c1ccccc1S(=O)(=O)N2CC(=O)N1CCCCC1 | -0.5%
COc1ccccc1NC(=O)CCCOc1cc(=O)n(C)c2ccccc12 | 6.8%
CCOc1ccc(NC(=O)Cn2nnc(C(=O)Nc3ccc(OCC)cc3)c2N)cc1 | 4.3%
CN(C)c1ccc(C(CNC(=O)c2ccc(C(C)(C)C)cc2)N2CCOCC2)cc1 (stereo unspecified) | 0.5%
